Cruzain inh Det: qHTS Assay for Promiscuous and Specific Inhibitors of Cruzain (with detergent); Potency, µM, for the others: max response, negative = inhibition, actives largely listed as inhibitors; hit rate 0.43% among 200,000; Cruzipain (Trypanosoma cruzi), P25779; AID 1478, 2009; purified cruzain, Z-FR-AMC fluorescence, 0.01% Triton; active means well fitted curve in the direction sought with a large enough effect; inconclusive means small, poorly fitted or top-dose-only effect, or another doubt; inactive means no such curve, though single readings can be large; an effect the other way counts as inactive or inconclusive;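 further: plate controls were neutral wells for no effect and buffer without enzyme for full effect; nearly all actives have a fitted effect of over 40% in size; top concentration of the series not given in the record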
Target sequence (P25779 123-467 limits assumed): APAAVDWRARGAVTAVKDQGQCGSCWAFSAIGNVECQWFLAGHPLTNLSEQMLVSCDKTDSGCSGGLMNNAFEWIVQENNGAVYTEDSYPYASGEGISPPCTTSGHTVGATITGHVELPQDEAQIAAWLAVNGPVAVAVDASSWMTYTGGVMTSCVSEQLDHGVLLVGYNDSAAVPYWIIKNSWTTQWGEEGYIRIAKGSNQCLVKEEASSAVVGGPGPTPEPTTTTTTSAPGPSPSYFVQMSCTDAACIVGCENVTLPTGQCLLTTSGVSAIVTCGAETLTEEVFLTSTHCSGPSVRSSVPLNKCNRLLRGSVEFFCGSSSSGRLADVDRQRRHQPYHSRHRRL
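Steps: dispense cruzain (1.5 nM final) in acetate buffer pH 5.5 with DTT and 0.01% Triton X-100; pin-transfer compounds; incubate 15 min RT; add Z-FR-AMC (2 uM final); read fluorescence every 30 s, using the 60 s intensity change.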
2A StopGo: High Throughput Screening for Foot and Mouth Disease Virus Antivirals. human cells with a luciferase reporter of 2A StopGo recoding; control for the full effect not named in the record. Potency, µM (titrated, usually from 57.9 µM), inactives show top-dose signal change, negative = less light. hit rate 1.2% among 410,000; active = well fitted falling curve with a large enough effect; inconclusive = small, poorly fitted or top-dose-only effect; inactive = no such curve, though single readings can be large or run the other way; tested in HEK293T cells; further: on the % scale 0 is the no-effect control and ±100 the full control effect; nearly all actives have a fitted effect of over 45% in size; luciferase light after 4 h
RE007 growth inh: qHTS Assay for Inhibitors of the HIV-1 protein Vpr; S. pombe RE007 Vpr strain, BacTiter-Glo ATP luminescence, 24 h; control for the full effect not named in the record; hit rate 0.21% among 360,000; Potency, µM (highest dose often 92.2 µM), for the others: at the highest dose activity change, negative = less growth; active = well fitted falling curve with a large enough effect; inconclusive = small, poorly fitted or top-dose-only effect; inactive = no such curve, though single readings can be large or run the other way;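 further: on the % scale 0 is the no-effect control and ±100 the full control effect; nearly all actives have a fitted effect of over 50% in size; the assay follows cell death caused by Vpr and the record does not say whether a fall means rescue or toxicity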
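Fission yeast strain RE007, carrying one chromosomally integrated HIV-1 vpr copy, was seeded at OD 0.01 in PMG+AL medium with 23 nL pinned compound. After 24 h at 30 °C and 99% humidity, viability was read by BacTiter-Glo luminescence.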
Cruzain noTriton: qHTS Assay for Promiscuous and Specific Inhibitors of Cruzain (without detergent) | purified cruzain, Z-FR-AMC fluorescence, no detergent | Potency, µM, without a hit: max response, negative = inhibition, usual class: inhibitors | hit rate 2.3% among 200,000; active means well fitted curve in the direction sought with a large enough effect; inconclusive means small, poorly fitted or top-dose-only effect, or another doubt; inactive means no such curve, though single readings can be large; an effect the other way counts as inactive or inconclusive;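 further: plate controls were enzyme without inhibitor for no effect and buffer without enzyme for full effect; nearly all actives have a fitted effect of over 40% in size; top concentration of the series not given in the record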
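Purified cruzain at 1.5 nM, pre-incubated 15 min with compound at room temperature in 100 mM sodium acetate pH 5.5, 5 mM DTT, 0.00005% Triton X-100. Reaction started with 2 uM Z-FR-AMC; AMC fluorescence increase over 60 s gives rate.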
NS1 inh: qHTS Assay for Inhibitors of Influenza NS1 Protein Function | Potency, µM (doses to about 46.1 µM), without a hit: at the highest dose activity, positive = more growth | S. cerevisiae slowed by influenza A NS1, growth recovery by OD600 | AID 2326, 2010 | hit rate 0.4% among 270,000; further: actives are rising curves; nearly all actives have a fitted effect of over 50% in size
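Compounds were scored for reversing the slow growth caused by influenza A NS1 in S. cerevisiae, measured by optical density at 600 nm. Assay medium contained 2% galactose at pH 6.0; NS1-free yeast of the same strain were the positive control.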
MARV entry inh: qHTS for inhibitors of binding or entry into cells for Marburg Virus. Marburg virus pseudotyped entry inhibition, cell reporter; control for the full effect not named in the record; about a third of the inactives were read at about 46 µM. Potency, µM (series often up to 37.8 µM), without a hit: at the highest dose activity change, negative = inhibition, actives largely listed as inhibitors. hit rate 1.8% among 300,000. AID 540276, 2011; active = well fitted inhibition curve with a large enough effect; inconclusive = small, poorly fitted or top-dose-only effect, or effect the other way; inactive = flat fitted curve, though single readings scatter; tested in HEK293 cells; about a fifth of its hits are not listed in these tables; further: on the % scale 0 is the no-effect control and ±100 the full control effect; luciferase read-out
LASV entry inh: qHTS for Inhibitors of binding or entry into cells for Lassa Virus | hit rate 1.2% among 300,000 | Potency, µM (top dose mostly 37.9 µM), without a hit: at the top dose activity change, negative = inhibition, most hits filed as inhibitors | Lassa virus pseudotype entry inhibition, cell reporter; control for the full effect not named in the record; active means well fitted inhibition curve with a large enough effect; inconclusive means small, poorly fitted or top-dose-only effect, or effect the other way; inactive means flat fitted curve, though single readings scatter; tested in HEK293 cells; further: on the % scale 0 is the no-effect control and ±100 the full control effect; nearly all actives have a fitted effect of over 50% in size; luciferase read-out
SARS PLP yeast: qHTS of Yeast-based Assay for SARS-CoV PLP. S. cerevisiae expressing SARS-CoV PLpro, growth rescue; control for the full effect not named in the record. Potency, µM (titrated, usually from 32.9 µM), inactives show at the highest dose activity, positive = growth rescue. hit rate 0.19% among 330,000; further: 0% is about no effect; nearly all actives have a fitted effect of over 55% in size; growth read by luminescence after 48 h
Starred values were filed as active, the others as inactive; u = inconclusive; x = not tested or not shown; & = joins results of further samples; [ ] = another dose, or the depositor's remark. Unless noted, the call rests on the fitted dose curve; in most records, active means well fitted rising curve with a large enough effect; inconclusive means small, poorly fitted or top-dose-only effect; inactive means no such curve, though single readings can be large or run the other way. Potency means the concentration at half of the fitted maximal effect.

mol	Cruzain inh Det	2A StopGo	RE007 growth inh	Cruzain noTriton	NS1 inh	MARV entry inh	LASV entry inh	SARS PLP yeast
CC(C)CCNC(=O)CN(Cc1ccccc1Cl)C(=O)CCC(=O)Nc1ccccn1	x	16%	9%	x	11%	-24%[46.1 µM]	-21%	2%
CCN(CC)CCNC(=O)c1cc(-c2ccc(Br)s2)nc2ccccc12	-3.2%	-7%&-5%	-23%	1%	6%	u	u	-4%
CCCCNC(=O)CCn1nc(-c2ccccc2)ccc1=O	3.0%	-16%	-4%	6%	u	14%	4%	7%
CC12C(C(=O)O)C1(c1ccccc1)C2C(=O)O (stereo not drawn)	x	-12%	8%	x	x	13%	13%[46.1 µM]	x
Cc1csc(NC(=O)c2cccc(S(=O)(=O)N3CCN(C)CC3)c2)n1	x	6%	-27%	x	x	10%[46.1 µM]	12%	-3%
CCCCC(CC)C(=O)NCCc1ccc(S(N)(=O)=O)cc1 (stereo not drawn)	-12%	13%	2%	-1%	-1%	-5%	12%	0%
Cc1ccccc1N1CCN(C2CCCN(C(=O)c3cc(CC(C)C)nn3C)C2)CC1 (stereo not drawn)	x	u	-6%	x	-14%	x	x	0%
CC(CNC(=O)c1ccc(C(C)(C)C)cc1)CN(C)C (stereo not drawn)	1.3%	2%	35%	2%	35%	u	10%	-7%
COc1ccc(-c2cc(C(=O)Nc3cccc(S(=O)(=O)NCc4ccco4)c3)c3ccccc3n2)cc1OC	x	2%	13%	x	21%	x	x	1%
CCC(C)N1CCCCC1C(=O)Nc1c(C)cc(C)cc1C (stereo not drawn)	-0.5%	-18%	-4%	0%	-3%	-27%	-18%	7%
CC(=O)/C(N=Nc1nc2c([nH]1)c(=O)n(C)c(=O)n2C)=C(\C)O	x	-13%	-3%	x	u	u	6%	2%
CCC(C)(C)NC(=O)CN(CCc1cccc(C)c1)C(=O)c1csnn1	x	7%	6%	x	-1%	u	-17%[46.1 µM]	1%
COc1cc2c(cc1OC)NC(=O)C2	x	-8%	-12%	x	x	u	-1%[46.1 µM]	x
COc1ccc(Cl)cc1C(=O)O/N=C(\N)c1ccccn1	x	35%[activator]	-1%	x	-54%	x	x	-12%
Cc1ccc(Cc2c(C)nc3nc(SCC(=O)NC(C)c4ccccc4)nn3c2C)cc1 (stereo not drawn)	-4.6%	-16%	x	8%	x	-3%[46.1 µM]	-3%[46.1 µM]	x
C/C(=N\Nc1ccc([N+](=O)[O-])cc1)c1ccc(-n2nncc2C)cc1	-7.8%	-10%	-6%	u	14%	u	u	-12%
CNC(=O)O/N=C(\N)Cc1csc2ccc(Cl)cc12	x	-14%	16%	x	-91%	u	u	u
CCCCNC(=O)C1C2C=CC3(CN(Cc4ccc(C)cc4)C(=O)C13)O2 (stereo not drawn)	6.7%	10%	16%	1%	0%	5%	0%	2%
Cc1ccc(C2=NN(S(=O)(=O)c3ccccc3)C(c3ccccc3O)C2)cc1 (stereo not drawn)	x	43%[activator]	5%	x	x	u	u	-2%
CC(=O)Nc1ccc(NC(=O)Cn2c(=O)n(-c3ccccc3)c(=O)c3oc4ccccc4c32)cc1	x	-11%	-9%	x	x	u	-1%	-3%
C/C(CC(=O)Nc1ccc(Cl)cc1C(F)(F)F)=N\NC(=O)c1ccccn1	x	6%	11%	x	10%	u	-18%[46.1 µM]	-1%
c1ccc(-c2noc(CSc3nnc(Cc4cccs4)n3-c3ccccc3)n2)cc1	-7.3%	u	5%	14%	-3%	u	u	-2%
COC(=O)[C@H](Cc1ccccc1)NC(=O)O[C@@H]1C(=O)c2cc(OC)ccc2O[C@H]1c1ccc(OC)c(Br)c1	-3.9%&-6.5%	x	x	u	19%	8%[14.2 µM]	8%	3%
COc1ccccc1C(=O)Nc1ccc2nc(N3CCC(C)CC3)cc(C)c2c1	-25%	-6%	x	-8%	x	-21%[46.1 µM]	u	x
Cc1cc(NC(=O)c2cc3ccccc3oc2=O)no1	6.9%	20%	-8%	-6%	-6%	14%	24%	-13%
Cc1cc(CSc2ccccc2)ccc1NC(=O)COc1ccccc1	-7.2%	0%	-6%	1%	2%	u	2%	15%
COc1ccc2c(c1)C(C)=CC(C)(C)N2C(=O)CN1C(=O)CCC1=O	-0.6%	-5%	1%	7%	6%	13%&13%	-17%	u
O=C(Nc1cccc(C(F)(F)F)c1)Nc1cccs1	-15%	-9%	x	-8%	x	-13%[46.1 µM]	x	x
CC(=O)Nc1nonc1-c1nnc(SCC(=O)Nc2cccc(F)c2)n1-c1ccccc1	-0.8%	-10%	x	11%	x	4%[46.1 µM]	4%[46.1 µM]	x
COc1ccc(-c2nnc(Nc3ccc(S(=O)(=O)Nc4nccs4)cc3)c3ccccc23)cc1	x	0%	-11%	x	x	18%[46.1 µM]	-22%[46.1 µM]	2%
CC1CC(C)CN(C(=O)Cn2c(SCC(=O)N3CCc4ccccc4C3)nc3ccccc32)C1 (stereo not drawn)	-1.2%	-17%	-9%	17%	1%	-24%	-13%	-10%
COc1ccc(OCC(=O)OCC(=O)Nc2ccc(S(=O)(=O)N3CCCCC3)cc2)cc1	-2.0%	-3%	24%	6%	-14%	1%&1%	3%	-2%
CCN(CC)CCN(C(=O)c1ccc(S(=O)(=O)N(CC)c2ccccc2)cc1)c1nc2c(OC)ccc(OC)c2s1	x	-25%	-12%	x	14%	-21%	0%	-3%
Cc1ccc(OCC(=O)NNC(=O)C2CCN(c3nccc(C)n3)CC2)cc1	0.9%	x	-3%	6%	17%	8%	8%	u
CCOC(=O)C(NC(C)=O)C(=O)Nc1ccc(C)cc1C (stereo not drawn)	x	-1%	-7%	x	4%	u	-3%	0%
COc1cc(Cl)c(C)cc1NC(=O)c1cnc(N2CCOCC2)c2ccccc12	-12%	-17%	x	u	x	x	u	x
COc1ccc(N2CCN(C3CCN(S(=O)(=O)c4ccc(F)cc4)CC3)CC2)cc1	x	0%	-11%	x	10%	x	x	-3%
C#CC[N+](C)(C)CC#Cc1ccc(Cl)cc1	2.3%	-2%	3%	3%	-3%	-3%[46.1 µM]	-14%	-18%
O=C(CCc1ccccc1)Nc1ccccc1[N+](=O)[O-]	0.1%	78%[activator]	4%	-3%	-10%	-1%	u	24%
COc1ccc(OCc2cc(C(=O)NCCCc3ccccc3)no2)c(Cl)c1	x	-5%	-12%	x	-35%	-29%	-17%	-1%
COc1ccc(CN(C(=O)c2ccc(-c3ccccc3)[nH]2)C(C(=O)NCC2CCCO2)c2ccc(C)o2)cc1 (stereo not drawn)	-3.1%	36%[activator]	-7%	u	-9%	u	u	-9%
O=C(Nc1ccc(Cl)c(Cl)c1)c1ccco1	x	0%	u	x	-143%	20%	-29%	-10%
CCOc1ccccc1NC(=O)C1CCCN(S(=O)(=O)c2ccc3c(c2)C(C)(C)C(=O)N3C)C1 (stereo not drawn)	x	-9%	-1%	x	2%	x	x	1%
CC(=O)n1nc(-c2ccccc2)nc1NCc1ccc(F)cc1	-6.7%	34%[activator]	0%	-20%	-7%	39%	-1%	-2%
O=C(C1CCCO1)N1CCN(C(=S)Nc2ccc(Cl)cc2)CC1 (stereo not drawn)	2.0%	52%[activator]	x	-6%	9%	u	-10%	5%
Cc1nc2nc(SCc3ccc(F)cc3Cl)nn2c(C)c1Cc1ccccc1	1.3%	18%	x	-2%	x	x	2%[46.1 µM]	x
COc1ccc(C2/C(=C(/O)c3cnn(-c4ccccc4)c3C)C(=O)C(=O)N2CCN(C)C)cc1OC (stereo not drawn)	x	-13%	4%	x	x	3%[46.1 µM]	17%[46.1 µM]	x
O=C(Nc1ccc(S(=O)(=O)N2CCOCC2)cc1)c1ccc(=O)[nH]c1	x	-9%	-4%	x	3%	x	x	0%
Cc1ccc(-n2c(C)cc(/C([O-])=C(/C(=S)Nc3ccc(F)c(Cl)c3)[n+]3ccccc3)c2C)cc1	-3.7%	-6%	-15%	-18%	20%	-21%	2%	4%
COc1cccc(-c2csc(N3CCN(C(=O)Nc4ccccc4OC)CC3)n2)c1	-14%	6%	-15%	u	u	-4%	20%	-18%
CCOc1ccc(CC(=O)Nc2ccc(S(=O)(=O)Nc3cc(C)on3)cc2)cc1OCC	-2.6%	1%	15%	12%	22%	1%	11%	-7%
O=C(NCCN1C(=O)S/C(=C\c2ccc(OC(F)F)cc2)C1=O)c1cnccn1	-6.0%	u	-15%	3%	-6%	-17%	u	-13%
Cc1ccc(S(=O)(=O)N2CCN(Cc3nc4ccc(C)cc4o3)CC2)cc1	-0.4%	-28%	x	-5%	x	x	8%[46.1 µM]	x
Cc1ccc(CNC(=O)CSc2ccc(-c3ccco3)nn2)cc1	-5.6%	-10%	-24%	-4%	-9%	u	17%	-2%
O=C1C2ON(c3ccc(Cl)cc3)C(c3ccco3)C2C(=O)N1c1ccccc1 (stereo not drawn)	-6.3%	5%	x	-20%	-59%	x	x	-16%
Cc1nc(-c2ccc3c(c2)CCC(=O)N3)cs1	x	31%[activator]	-5%	x	-1%	7%[46.1 µM]	9%	-1%
O=c1c2ccccc2nc(CNc2ccccc2)n1-c1ccccc1	x	-13%	4%	x	7%	10%[46.1 µM]	0%[46.1 µM]	-1%
Cc1ccc(C)c(Cn2c(=O)cc(C)c3c(C)nn(C)c32)c1	-4.8%	u	x	15%	x	x	u	x
Cc1cccc2sc(N(Cc3cccnc3)C(=O)c3ccco3)nc12	-8.5%	-12%	x	26%	x	x	-1%[46.1 µM]	x
Cc1cccc(C(C(C(=O)c2ccccc2)N2CCOCC2)N2CCOCC2)c1 (stereo not drawn)	x	30%[activator]	-16%	x	x	0%[46.1 µM]	24%[46.1 µM]	x
Cc1ccc(-c2cn(-c3cccc(Cl)c3)c(S(=O)(=O)CC(=O)Nc3cccc(C)c3)n2)cc1	-21%	18%	x	16µM*	x	u	u	x

Screening data: PubChem BioAssay, National Center for Advancing Translational Sciences (NCATS)
